Hsc70: small molecules displacing fluorescent ligand from Hsc70 – biochemical, fluorescence polarization, primary screen (AID 568); Hsc70 fluorescence polarization, probe displacement; higher % means a stronger effect; strong numbers were not always called active; one-dose displacement, % at 20 µM; IC50 in µM for titrated hits; 83,000 tested, under 10 active;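 active means displacement above 50% without optical interference and an IC50 on retest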;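 further: ATPase domain with a fluorescein-tagged ATP probe; 0% = vehicle and 100% = excess ADP; read after one hour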
MT1-MMP reporter: inhibitors of MT1-MMP promoter transcription, cell-based, luciferase reporter, luminescence (AID 618); MT1-MMP promoter luciferase reporter cells, luminescence; calls from a first round at 10 µM; hits with a dose series show EC50 in µM; 87,000 compounds, 0.62% hits;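 active means over half of the reporter light lost at 10 µM or EC50 under 50 µM; inactive means the rest and hits that failed the dose series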;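 further: actives suppress MT1-MMP promoter-driven transcription so potencies describe inhibitors; HT1080 fibrosarcoma cells; overnight exposure; toxic or luciferase-blocking compounds were not removed from the actives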
WNV NS2B-NS3 inh: blocks West Nile virus NS2B-NS3 protease activity; 65,000 compounds, 0.18% hits; z-score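 (tested at a level between 10 and 100 µM)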; P06935; WNV NS2B-NS3 protease, fluorogenic substrate Ex360/Em465; active compounds read low; AID 577;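 active means z-score at -3 or under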;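 further: score is relative to mean and spread of the compound wells of a plate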
Target sequence (P06935 1371-1501 limits assumed): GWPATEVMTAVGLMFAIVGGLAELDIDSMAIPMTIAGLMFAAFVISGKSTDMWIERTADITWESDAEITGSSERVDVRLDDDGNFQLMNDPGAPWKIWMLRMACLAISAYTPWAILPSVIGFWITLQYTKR
Target sequence (P06935 1502-1679 limits assumed): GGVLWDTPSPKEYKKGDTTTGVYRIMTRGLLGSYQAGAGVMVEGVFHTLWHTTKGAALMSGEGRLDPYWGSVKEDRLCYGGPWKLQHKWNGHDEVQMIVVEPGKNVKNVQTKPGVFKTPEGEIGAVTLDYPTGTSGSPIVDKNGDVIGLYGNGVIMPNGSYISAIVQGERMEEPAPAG
Active calls of the source: *; i = inactive; / = no result given.

Value order – MT1-MMP reporter | WNV NS2B-NS3 inh | Hsc70
CCCCC(c1nnnn1Cc1ccco1)N1CCN(c2nc3ccccc3s2)CC1 (stereo not given)
  i | -1.6 | -2.9%
CN1C(=O)N(S(=O)(=O)c2ccc(F)c(F)c2F)C(=O)C1(C)C
  i | 0.96 | 0.8%
CC(C)Nc1nc(NC(C)(C)C)nc(Oc2ccc(=O)n(-c3ccccc3)n2)n1
  i | / | 1.8%
Cc1ccc2c(c1)N(CCC(=O)NC1CC1)C(=O)C(C)O2 (stereo not given)
  i | -0.98 | -0.1%
CC(C)(C)c1ccc2c(c1)N(CC(=O)O)C(=O)CO2
  i | 0.05 | -2.6%
COc1ccc(CN(C)CCc2ccccn2)cc1OC
  i | 0.68 | 3.6%
CN(C)c1ccc(NC(=O)c2cccc(N3C(=O)CCC3=O)c2)cc1
  i | -0.93 | 3.8%
N#Cc1ccccc1Cn1cc(C#N)c2ccccc21
  i | / | 1.7%
Nc1nnc(CC(c2ccccc2)c2ccccc2)s1
  i | / | -1.3%
Cc1ccc(Cn2nnc(C(=O)Nc3cccc(C)c3C)c2N)cc1
  i | -1 | 2.9%

(next part)
Value order – MT1-MMP reporter | WNV NS2B-NS3 inh | Hsc70
CC(C)C(NC(=O)CC12CC3CC(CC(C3)C1)C2)C(=O)O (stereo not given)
  i | -0.32 | 5.6%
O=C(NCCC1=CCCCC1)C1CCCN(S(=O)(=O)c2ccccc2)C1 (stereo not given)
  i | 2 | 3.8%
COc1ccc2c(c1)N(C(=O)CN1C(=O)C3CCCCC3C1=O)C(C)(C)C=C2C (stereo not given)
  i | / | -0.7%
CC1CCN(S(=O)(=O)c2ccc(NC(=O)c3cccs3)cc2)CC1
  i | 2.7 | -0.6%
COc1ccc(-c2nnc(SC(C)C(=O)NCc3ccc4c(c3)OCO4)n2Cc2ccco2)cc1 (stereo not given)
  i | / | -1.4%
CCCCOC(=O)C1=C(C)Nc2nnnn2C1c1ccc(OC)c(OC)c1OC (stereo not given)
  i | -1.4 | 1.9%
O=C(Cn1cnc2ccccc2c1=O)NCCC(=O)N1CCN(Cc2ccccc2)CC1
  i | -1.5 | 4.7%
O=C(OCCN1CCCCC1)c1ccccc1Cl
  i | -0.88 | -3.0%
Nn1c(SCC(=O)NC2CCCC2)nnc1-c1ccccc1F
  i | / | -0.9%
CC(C)CC(NC(=O)OC(C)(C)C)C(=O)NCc1ccccc1 (stereo not given)
  i | -0.81 | 5.2%

More records follow:
Value order – MT1-MMP reporter | WNV NS2B-NS3 inh | Hsc70
COc1cc(/C=N\n2cnnc2)ccc1OCC(=O)Nc1ccc(C)cc1
  i | / | 3.6%
Cc1ccc(S(=O)(=O)NCCN(CCNS(=O)(=O)c2ccc(C)cc2)S(C)(=O)=O)cc1
  i | -0.96 | -8.1%
CCCCCCOc1ccc(N2C(=O)CC(N3CCN(C(=O)c4ccco4)CC3)C2=O)cc1 (stereo not given)
  i | -0.33 | -0.3%
CCOc1ccc(N(CC(=O)N2CC=C(c3ccccc3)CC2)S(=O)(=O)c2c(C)noc2C)cc1
  i | 0.51 | -2.2%
CCN(CC)S(=O)(=O)c1ccc(C(=O)NCCc2cc3c(OC)ccc(OC)c3[nH]c2=O)cc1
  i | 0.87 | 2.3%
c1ccc2c(c1)NC1(CCCCC1)n1c-2nc2ccccc21
  i | 0.73 | -4.0%
Cc1ccc(Nc2nc(=O)[nH]nc2C)cc1
  i | / | 3.6%
Cc1cc(=O)n(C)c(=O)n1CCCNc1ccccc1
  i | -0.08 | 3.6%
CCOC(=O)C(C(=O)Nc1cccc(C)c1)C1CCCCC1 (stereo not given)
  i | / | -2.3%
COc1ccccc1NC(=O)C1=C(C)NC(SCC(=O)c2ccccc2)=C(C#N)C1c1ccco1 (stereo not given)
  i | 1.1 | -26%

Next section.
Value order – MT1-MMP reporter | WNV NS2B-NS3 inh | Hsc70
Nc1nnc(Cc2ccccc2)s1
  i | / | -1.5%
O=C(Nc1ccccc1)c1ccc(S(=O)(=O)N(CCO)CCO)cc1
  i | 0.68 | 4.4%
Cc1nnc(SCC(=O)Nc2sccc2C(N)=O)n1Cc1ccccc1
  i | 0.07 | -5.9%
CC(=O)Nc1ccc(S(=O)(=O)Nc2cc(C)c(-n3nc4ccccc4n3)cc2O)cc1
  i | -0.49 | 6.9%
CC(C)CCNC(=O)C1CCC(=O)N1C(C)C (stereo not given)
  i | / | -5.1%
COc1cc(NC(=O)C2CCN(S(=O)(=O)c3cccc4nonc34)CC2)cc(OC)c1
  i | 0.54 | -4.6%
Cc1cccc(C)c1NC(=O)CCCSc1nnnn1C
  i | 0.84 | 3.2%
COCCn1c(Sc2nc(C)cs2)nc2c1c(=O)[nH]c(=O)n2C
  i | -0.01 | -13%
CCC(=NCc1ccco1)c1c(C(F)(F)F)[nH]n(-c2nc3ccccc3s2)c1=O
  i | / | -2.3%
Cc1[nH]c2ccccc2c1Cc1n[nH]c(=S)n1C
  i | / | 2.1%

Next section
Value order – MT1-MMP reporter | WNV NS2B-NS3 inh | Hsc70
CCOC(=O)CSc1nc(C(C)C)nc2ccccc12
  i | / | 0.4%
O=C(CSc1nnnn1C1CCCC1)Nc1cccc(NC(=O)c2ccco2)c1
  i | 0.71 | 9.4%
COc1cc(OC)cc(C(=O)N2CCC(n3c(C)nc4cc(F)ccc43)CC2)c1
  i | 0.09 | 0.6%
CCOc1ccc(N(CC(=O)Nc2ccc(C)c(C)c2)S(=O)(=O)c2c(C)noc2C)cc1
  i | 0.25 | -0.1%
CCCCCc1nnc(NC(=O)OCCC)s1
  i | 1.9 | -0.7%
CCOc1ccc(N2C(=O)c3ccccc3C2O)cc1 (stereo not given)
  i | 2.1 | 8.0%
CCCn1nnc(NC(=O)c2cc3ccccc3o2)n1
  i | -0.75 | 1.3%
Cc1ccc(S(=O)(=O)Cc2ccc(C(=O)N3CCCCCC3)o2)cc1
  i | 2.1 | -1.0%
O=C(NCc1cccs1)c1ccc(Cl)s1
  i | -1.1 | 4.7%
CC1=C(C(=O)NCCN2CCN(C)CC2)C2(CCC(C)CC2)OC1=O (stereo not given)
  i | 1.1 | 2.8%

Next section.
Value order – MT1-MMP reporter | WNV NS2B-NS3 inh | Hsc70
CCOC(=O)c1[nH]c2ccc(F)cc2c1NC(=O)C(C)N1CCc2cc(OC)c(OC)cc2C1 (stereo not given)
  i | 0.02 | 1.9%
N#Cc1c(-c2ccccc2)nc2n(c1=O)CCS2
  i | / | -0.8%
CCCCc1nc(N2CCOCC2)c(C#N)c2c1CCCC2
  i | -1 | -0.7%
CC(C)C1=C2OC(N)=C(C#N)C(C#N)=C2C(C)CC1 (stereo not given)
  i | 0.6 | 9.8%
CCC1S/C(=C(\C#N)C(=O)NCc2ccco2)N(c2ccc(Br)cc2)C1=O (stereo not given)
  i | 0.04 | -3.5%
CC(C)c1ccc(CN2CCC(C(=O)NCc3cccnc3)CC2)cc1
  i | / | 3.6%
COc1cccc(NC(=O)COC(=O)CCCc2c[nH]c3ccccc23)c1
  i | / | -2.0%
COc1cc(CNc2ccc3[nH]c(=O)[nH]c3c2)ccc1OCC(=O)NC(C)(C)C
  i | 0.51 | -0.2%
CCOC(=O)N1CCC(NC(=O)c2sc(-n3cccc3)nc2C)CC1
  i | 0.68 | -3.0%
O=C(c1ccc(Br)o1)N1CCCc2ccccc21
  i | / | -1.5%

Continued:
Value order – MT1-MMP reporter | WNV NS2B-NS3 inh | Hsc70
COc1ccccc1Nc1nc(N)nc(CN2CCN(c3ccccc3F)CC2)n1
  i | 0.28 | 0.7%
CCCCN(CC)CCNc1c(N2CCN(C(=O)OCC)CC2)c(=O)c1=O
  i | 0.06 | 0.8%
c1ccc(Nc2n[nH]nc2-c2ccccc2)cc1
  i | 2.8 | -6.2%
CCn1c2ccccc2c2cc(NC(C)=O)ccc21
  i | / | -1.3%
COc1ccc(C)cc1S(=O)(=O)N(C)CC(=O)Nc1ccc2c(c1)OCO2
  i | 0.5 | 2.9%
Cc1ccc(C(=O)CSc2nc3ccccc3c(=O)n2N)o1
  i | -0.26 | -1.9%
COCCCN1CC23C=CC(O2)C(C(=O)O)C3C1=O (stereo not given)
  i | -0.88 | 9.3%
CCCn1cnc2c(cnn2-c2ccc(F)cc2)c1=O
  i | 0.11 | 1.8%
COc1ccc(C2C=C(c3ccc(Cl)cc3)Nc3nc(NC(C)=O)nn32)cc1 (stereo not given)
  i | -0.39 | 48%
CN(C)c1ccc(/C=N\NC(=S)SCN2C(=O)C3CCC(C)(C2=O)C3(C)C)cc1 (stereo not given)
  i | / | -7.9%

New compounds follow.
Value order – MT1-MMP reporter | WNV NS2B-NS3 inh | Hsc70
CCCc1nc2oc3c(N4CCNCC4)ncnc3c2c2c1CCCC2
  i | -1.6 | 9.9%
Cc1nnc(C)n1/N=C/c1ccc(C(C)C)cc1
  i | 0.3 | -2.0%
COc1ccccc1NC(=O)CC1C(=O)Nc2c1c(=O)n(C)c(=O)n2C (stereo not given)
  i | -0.21 | -2.9%
O=C(NCc1ccccc1)c1noc2c1CCCCC2
  i | -0.82 | -7.3%
COc1ccc(C2N3CC4(C)CN2CC(C)(C3)C4O)cc1 (stereo not given)
  i | 0.73 | 1.9%
O=C(COc1ccc(OCc2ccccc2)cc1)NC1CCOC1=O (stereo not given)
  i | -1.7 | -5.1%
Cc1c(C(=O)NCCN2CCOCC2)sc2nc(-c3ccc(F)cc3)cn12
  i | 0.3 | -9.5%
Cc1ccc(NC(=O)CS(=O)CC(=O)N(c2ccccc2)C(C)C(=O)NC2CCCC2)cc1 (stereo not given)
  i | 2 | -2.0%
COc1ccc(-c2nc(C#N)c(N3CCCCCC3)o2)cc1OC
  i | -0.84 | 4.1%
COCCCN1C(=O)C(=O)/C(=C(/O)c2ccc(OCC(C)C)cc2C)C1c1cccnc1 (stereo not given)
  i | 1.2 | 3.0%

Other structures.
Value order – MT1-MMP reporter | WNV NS2B-NS3 inh | Hsc70
Cc1onc(-c2ccccc2)c1C(=O)NCC1CCCO1 (stereo not given)
  i | -0.77 | 11%
Cc1ccc2[nH]c3c(c2c1)CCCC3C(N)=O (stereo not given)
  i | -1.1 | 12%
COc1ccc(-c2nnn(CCc3nn[nH]n3)n2)cc1
  i | / | 2.4%
CC1CCC(N2CCN(S(C)(=O)=O)CC2)CC1 (stereo not given)
  i | -0.04 | 2.2%
CN(CC(=O)Nc1ccc(F)c(Cl)c1)S(=O)(=O)c1cccc2nsnc12
  i | 1.2 | -3.0%
Cc1c(C(=O)O)[nH]c2c1C(=O)CC(c1ccc(Cl)cc1)C2 (stereo not given)
  i | -0.26 | -2.1%
O=S(=O)(Nc1nccs1)c1ccc2c(c1)OCCO2
  i | -0.79 | 3.2%
Cc1cccc(N(CC(N)=O)C2SC(=O)NC2=O)c1 (stereo not given)
  i | / | 0.4%
CCOC(=O)c1cnc(SCC(=O)N2CCc3ccccc32)nc1N
  i | -1.3 | 7.2%
CCCN(CCC)CCSc1nc(O)c(C(C)C)c(=O)[nH]1
  i | 0.78 | -12%

A portion taken from the entries so far, as a working copy:
Value order – MT1-MMP reporter | WNV NS2B-NS3 inh | Hsc70
CC1CCC(N2CCN(S(C)(=O)=O)CC2)CC1 (stereo not given)
  i | -0.04 | 2.2%
CN(CC(=O)Nc1ccc(F)c(Cl)c1)S(=O)(=O)c1cccc2nsnc12
  i | 1.2 | -3.0%

The main list resumes, starting four compounds before the break.
Value order – MT1-MMP reporter | WNV NS2B-NS3 inh | Hsc70
O=S(=O)(Nc1nccs1)c1ccc2c(c1)OCCO2
  i | -0.79 | 3.2%
Cc1cccc(N(CC(N)=O)C2SC(=O)NC2=O)c1 (stereo not given)
  i | / | 0.4%
CCOC(=O)c1cnc(SCC(=O)N2CCc3ccccc32)nc1N
  i | -1.3 | 7.2%
CCCN(CCC)CCSc1nc(O)c(C(C)C)c(=O)[nH]1
  i | 0.78 | -12%
CCCOc1ccc(C2C(C(=O)OC)=C(C)N=C3SCCC(=O)N32)cc1OCC (stereo not given)
  i | 0.04 | 6.1%
N#Cc1cc2c(=O)n3ccccc3nc2n(CCN2CCOCC2)c1=O
  i | 0.91 | 1.0%
O=C(CN1CCN(C(=O)c2ccco2)CC1)Nc1ccc2c(c1)OCO2
  i | / | 4.2%
CCOc1cc(NC(=O)c2ccco2)c(OCC)cc1NC(=O)CCc1ccc(OC)cc1
  i | -0.52 | 2.4%
CCCCc1nc(N)c(C#N)c(-c2ccco2)c1CCC
  i | / | 1.3%
Cc1ccc(-c2nnn(CC(=O)NCCc3ccc4c(c3)OCO4)n2)o1
  i | 0.39 | 5.7%
O=C(COc1ccc(S(=O)(=O)N2CCCCC2)cc1)N1CCCCCC1
  i | 0.65 | 4.1%
CCCn1c(=O)[nH]c(=O)c2c1nc(-c1ccc(OC(F)(F)C(F)C(F)(F)F)cc1)n2CCOC (stereo not given)
  i | / | -0.7%
COc1ccc(Br)cc1S(=O)(=O)N1CC(C)OC(C)C1 (stereo not given)
  i | 0.96 | -4.1%
Cc1ccc2cc(CN(CC3CCCO3)S(=O)(=O)c3c(C)ccc4nsnc34)c(=O)[nH]c2c1 (stereo not given)
  i | -0.74 | -4.9%

Continuation:
Value order – MT1-MMP reporter | WNV NS2B-NS3 inh | Hsc70
CC(=O)c1c(C)nc2ccccn12
  i | -1.1 | -2.2%
O=C(CNC(=O)c1ccc(Br)o1)NCc1ccc2c(c1)OCO2
  i | / | -9.7%
COc1ccccc1NC(=O)Nc1ccnn1C1CCCCC1
  i | 0.74 | -0.7%
Cc1cccn2c(N)c(-c3ccccc3)nc12
  i | 2.1 | -1.0%
CCCCNc1cc(=O)n(C)c(=O)[nH]1
  i | -1.4 | -0.9%

Compound activity: PubChem BioAssay, several laboratories
